High-throughput results (PubChem)
TRPML1 agonist – qHTS for Agonists of the Human Mucolipin Transient Receptor Potential 1 (TRPML1). TRPML1-expressing cells, Ca2+ dye fluorescence, FDSS; host cell line not named in the record; reference of the full effect not given here. activation, % (no concentration beside the values). 0.12% of 410,000 active; in the data active = activation above about 50%; inconclusive = about 30% to 50%; inactive = below about 30%; note: 0% is about no effect; the text of the record puts the active cut at 80%
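Tet-induced TRPML1-DL cells, 1,500 per well, cultured overnight, were loaded with a no-wash Ca2+ dye for 45–90 min. Calcium fluorescence was recorded on the FDSS for 110 s after compound addition, before the EC80 agonist (4 uM 54-4) was added.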
Six1-Eya2 inh – qHTS Assay for Inhibitors of the Six1/Eya2 Interaction. Homeobox protein SIX1 (Homo sapiens) + Protein phosphatase EYA2 (Homo sapiens), …. AlphaScreen GST-Six1/His-Eya2 binding, biochemical; stronger effect = lower value; control for the full effect not named in the record. activity change, % (test concentration not listed). 0.56% of 360,000 active. AID 651725, 2012; in the data active = activity change below about -65%; inconclusive = about -30% to -65%; inactive = above about -30%; note: % is set by controls: 0 for no effect and ±100 for the full control effect; compound concentration not given in the record
Target sequence (O00167 whole entry, looked up): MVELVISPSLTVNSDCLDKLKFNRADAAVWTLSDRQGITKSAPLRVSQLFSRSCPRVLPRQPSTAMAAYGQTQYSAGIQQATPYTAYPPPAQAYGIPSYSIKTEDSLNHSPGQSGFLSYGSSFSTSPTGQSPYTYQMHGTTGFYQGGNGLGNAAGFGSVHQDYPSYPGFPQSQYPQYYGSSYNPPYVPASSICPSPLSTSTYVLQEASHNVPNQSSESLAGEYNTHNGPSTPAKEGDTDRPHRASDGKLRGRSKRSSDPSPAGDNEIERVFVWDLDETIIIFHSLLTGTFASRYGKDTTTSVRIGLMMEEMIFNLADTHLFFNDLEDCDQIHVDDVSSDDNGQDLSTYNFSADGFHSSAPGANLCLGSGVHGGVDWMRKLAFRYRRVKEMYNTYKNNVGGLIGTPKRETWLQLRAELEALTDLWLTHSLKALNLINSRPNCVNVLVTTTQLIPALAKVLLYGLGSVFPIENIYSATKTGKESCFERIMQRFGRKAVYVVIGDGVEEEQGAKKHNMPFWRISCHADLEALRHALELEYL
Target sequence (Q15475 whole entry, looked up): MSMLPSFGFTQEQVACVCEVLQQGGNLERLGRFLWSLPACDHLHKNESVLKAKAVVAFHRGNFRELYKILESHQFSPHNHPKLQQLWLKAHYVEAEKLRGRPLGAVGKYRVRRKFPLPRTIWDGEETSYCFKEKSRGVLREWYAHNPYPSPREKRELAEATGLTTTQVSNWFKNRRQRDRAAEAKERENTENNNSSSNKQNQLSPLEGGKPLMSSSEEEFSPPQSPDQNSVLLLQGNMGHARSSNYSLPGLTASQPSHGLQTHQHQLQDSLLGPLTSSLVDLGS
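AlphaScreen luminescence read after one hour at 37 °C in darkness. Pin-transferred compounds met GST-Six1 and His-Eya2 protein (5X stock 250 nM/500 nM) plus glutathione donor and Ni-chelate acceptor beads (5X, 50 ug/mL).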
D2 agonist – Beta-Arrestin HTS for Positive Allosteric Modulators of the Human D2 Dopamine Receptor: Agonists; 0.084% of 360,000 active; D(2) dopamine receptor (Homo sapiens), P14416; activation, % (no concentration beside the values); DiscoveRx PathHunter D2 beta-arrestin, luminescence, 90 min; 100% = 57 uM dopamine signal; in the data active = activation above about 40%; inconclusive = about 15% to 40%; inactive = below about 15%; note: compound concentration not given in the record; the text of the record calls up to 30% inactive
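Agonist mode: compounds alone added to overnight-plated D2 PathHunter cells for 90 min at 37 C, with 57 uM final dopamine (EC100) defining full response. Beta-arrestin recruitment detected by chemiluminescent reagent, read after 1 h at ambient temperature.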
PINK1 expr mod – A Quantitative High throughput Screen to Identify Chemical Modulators of PINK1 Expression | PINK1 immunofluorescence, high-content cytometry, 24 h | 0.2% of 410,000 active | Potency, µM (series often up to 76.6 µM), without a hit: at the top dose activation (PINK1 increase), most hits filed as activators | AID 624263, 2012; active = well fitted activation curve with a large enough effect; inconclusive = small, poorly fitted or top-dose-only effect; inactive = flat fitted curve, though single readings scatter; cell line not stated here;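 note: potency is the fitted concentration of half-maximal effect; % of control where 0% means no effect; nearly all actives have a fitted effect of over 65% in size; a mitochondrial uncoupler was the plate control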
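Decision-based qHTS: stable cells, 24 h exposure to five compound concentrations, CCCP as control. Fixed cells stained for PINK1 plus nuclear, mitochondrial and cell markers, cytometer read.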
TRPML1 inh – qHTS for Inhibitors of the Human Mucolipin Transient Receptor Potential 1 (TRPML1) | TRPML1-inducible cells, Ca2+ dye fluorescence, FDSS; stronger effect = lower value; inhibition of EC80 agonist-evoked calcium signal | 0.02% of 390,000 active | AID 624415, 2012 | Mucolipin-1 (Homo sapiens), Q9GZU1 | activity change, negative = inhibition, % (no concentration beside the values); in the data active means activity change below about -50%; inconclusive means about -30% to -50%; inactive means above about -30%;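 note: stimulus is agonist 54-4 at its EC80 concentration; % is set by controls: 0 for no effect and ±100 for the full control effect; compound concentration not given in the record; the text of the record puts the active cut at -80%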
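TRPML1-DL cells, Tet-induced overnight (~16 h, 37 °C) at 1,500 cells/well, were loaded with Ca8 no-wash dye plus quencher for 45-90 min at room temperature. Compounds were pinned during FDSS kinetic reading; agonist 54-4 at EC80 (4 uM final) then added.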
CtBP-E1A inh – qHTS Assay for Inhibitors of the CtBP/E1A Interaction; CtBP / adenovirus E1A interaction (AlphaScreen); AlphaScreen GST-E1A/His-CtBP binding, 1536-well; stronger effect = lower value; control for the full effect not named in the record; activity change, % (concentration not given with the values); 0.49% of 340,000 active; AID 651724, 2012; in the data active means activity change below about -65%; inconclusive means about -30% to -65%; inactive means above about -30%; note: % is set by controls: 0 for no effect and ±100 for the full control effect
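Steps: dispense buffer (Tris pH 8.0, NaCl 300 mM, TCEP 1 mM, BSA, Tween 20); add 5X protein mix (GST-E1A, His-CtBP, 125 nM each); pin 23 nL compound; 2 h at 37 °C, dark; add 5X beads (50 ug/mL); 1 h; read.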
* marks the source's active call; other numbers are inactive results; ? = inconclusive; . = no result given; & = joins results of further samples; [ ] = remark or other dose.

Start of the listing, in advance (4 entries):
Value order: CtBP-E1A inh	TRPML1 inh	Six1-Eya2 inh	TRPML1 agonist	PINK1 expr mod	D2 agonist
C=Cc1ccc(Cn2c(C)c(C(=O)NCc3ccc(C#N)cc3)sc2=O)cc1
→ -2	.	-14	3.5	-1.1%	5.2
CC1c2[nH]c3ccccc3c2C[C@H]2C(=O)N(CCCN(C)C)CC(=O)N12 (stereo partly specified)
→ 1	2	-11	-0.6	0.3%	-3.5
CCCCn1c(=O)[nH]c(=O)c2c1nc(Cn1ncc(Cl)c(Cl)c1=O)n2CCC
→ 3	2	-13	0.4	0.1%	-2.2
O=S(=O)(c1ccc(F)cc1)N1CCN(Cc2nnc(-c3ccccc3)o2)CC1
→ .	-5	1	0.2	2.5%	-4.0

The listing, from the start:
Value order: CtBP-E1A inh	TRPML1 inh	Six1-Eya2 inh	TRPML1 agonist	PINK1 expr mod	D2 agonist
C=Cc1ccc(Cn2c(C)c(C(=O)NCc3ccc(C#N)cc3)sc2=O)cc1
→ -2	.	-14	3.5	-1.1%	5.2
CC1c2[nH]c3ccccc3c2C[C@H]2C(=O)N(CCCN(C)C)CC(=O)N12 (stereo partly specified)
→ 1	2	-11	-0.6	0.3%	-3.5
CCCCn1c(=O)[nH]c(=O)c2c1nc(Cn1ncc(Cl)c(Cl)c1=O)n2CCC
→ 3	2	-13	0.4	0.1%	-2.2
O=S(=O)(c1ccc(F)cc1)N1CCN(Cc2nnc(-c3ccccc3)o2)CC1
→ .	-5	1	0.2	2.5%	-4.0
CCOc1ccc(CN(C)C(=O)CNC(=O)C2CCCCC2)cc1OC
→ 2	-6	4	0.8	5.1%	-3.7
CC(CN1CCC(O)CC1)c1ccccc1 (stereo unspecified)
→ -9	-2	2	-0.4	-1.4%	-0.8
Cc1cccc(C)c1NC(=O)CN(Cc1ccc(Br)cc1)S(=O)(=O)c1ccccc1
→ .	29	.	0.6	3.1%	.
CCn1c(CC(=O)Nc2cccc(OC)c2)nnc1SCC(=O)N1CCN(c2ccccc2)CC1
→ -16	-3	-16	-0.1	2.1%[38.3 µM]	-0.4
O=C(c1ccccc1CCc1ccccc1)N1CCOCC1
→ 9	5	12	1.4	0.2%	-0.3
CC(=O)c1ccc(NC(=O)CCn2nc(C)c(S(=O)(=O)N3CCC(C)CC3)c2C)cc1
→ .	0	.	2.0	-0.2%	.
Cn1c(=O)[nH]c(=O)c2c1nc(SCC(O)CO)n2CCCc1ccccc1 (stereo unspecified)
→ 8	-2	-1	-0.4	4.2%	-3.0
Cc1nn(-c2ccc(F)cc2)c(Cl)c1/C=C(\CCC(=O)O)c1nc2ccccc2s1
→ 6	25	-2	0.6	-1.4%[38.3 µM]	-2.2
CCc1ccc(S(=O)(=O)NC2CCCCNC2=O)cc1 (stereo unspecified)
→ .	-12	23	-0.6	0.6%	-3.0
O=C(c1ccc(Cl)c(S(=O)(=O)NCc2ccco2)c1)N1CCN(c2ccc(F)cc2)CC1
→ -4	-9	-14	-0.9	8.6%	-2.0
O=C1CC(N2CCN(S(=O)(=O)c3ccccc3F)CC2)C(=O)N1c1ccc(F)cc1F (stereo unspecified)
→ 2	9	-3	0.0	2.5%	-2.1
C=CCn1c(-c2ccc3ncccc3c2)n[nH]c1=S
→ .	-2	-2	0.6	-0.3%	?
Cc1cc(C)c(NC(=O)NC2CCCCC2)c(C)c1
→ 9	29	4	0.1	-1.0%	-0.5
CCOC(=O)N1CCN(S(=O)(=O)c2ccc(C(=O)NNc3nc4ccc(Cl)cc4s3)cc2)CC1
→ -4	45	4	0.2	7.0%	-0.2
COc1c2ccoc2cc2oc(=O)ccc12
→ 3	18	6	0.2	-0.9%	-0.8
CN(C)C(=S)N=c1ssc(=S)n1Cc1ccccc1
→ -4	31	3	0.6	8.1%	-8.3
CC[n+]1cc(C)ccc1/C=C/c1ccc(N(C)C)cc1
→ .	20	-2	5.8	?	-6.6
O=c1c(-c2ccc(Cl)cc2)[n+]([O-])c2ccccc2n1OCc1ccccn1
→ -4	4	-2	-0.6	1.1%[38.3 µM]	-1.8
O=C(CCN1CCCCC1)N1CCc2c([nH]c3ccccc23)C1c1cccnc1 (stereo unspecified)
→ 2	-11	-13	-0.3	-2.8%	-4.3
O=C(NCC1CCCO1)c1cccc(NS(=O)(=O)c2ccc(Br)cc2)c1 (stereo unspecified)
→ -1	12	0	0.5	0.4%	5.4
Cn1c2ccccc2n2c(=O)c(=O)n(CC(=O)c3ccc(Cl)cc3)nc12
→ 6	-3	1	2.0	5.0%	?
CCN(CC)S(=O)(=O)c1cccc(-c2n[nH]c(=S)n2/N=C/c2ccc(OC)cc2)c1
→ 5	2	-9	-0.1	-1.7%	-5.0
Cn1nc(-c2ccc(OCC(=O)Nc3ccccc3)cc2)c2ccccc2c1=O
→ -5	27&-24	-3	1.5&3.1	1.3%	6.6
Cn1c(SCC(=O)NNC(=O)c2ccccc2)nnc1C1CC1
→ 7	3	-6	-0.3	0.9%	-1.2
COc1ccc(-c2nn(-c3ccccc3)cc2/C=N/Nc2ccc3ccccc3n2)cc1OC
→ 1	9	-7	0.5	5.6%	-3.4
CCN(CC)C(=O)c1cc2c(=O)n3ccccc3nc2s1
→ -10	0	-3	-0.4	0.3%	-0.7
O=C(COc1ccc(Cl)cc1Br)NCC(c1ccco1)N1CCCC1 (stereo unspecified)
→ 14	7	-14	-1.1	0.8%	-6.0
NC(CSC12CC3CC(CC(C3)C1)C2)C(=O)O (stereo unspecified)
→ 6	-12	-2	0.1	.	0.1
C=CCn1c(SCc2ccccc2C#N)nnc1-c1ccccc1O
→ -3	10	-1	0.2	-0.3%	-0.9
O=C(N/C(=C\c1cccc([N+](=O)[O-])c1)C(=O)N(CCO)CCO)c1ccco1
→ 0	1	-21	0.5	0.3%	-2.9
Cc1cc(C(=O)C(C)Cl)c(C)n1Cc1ccco1 (stereo unspecified)
→ 8	3	-17	-0.5	1.9%	2.9
COc1ccc(Cc2nnc(NC(=O)C3CCCO3)s2)cc1OC (stereo unspecified)
→ 6	-2	8	0.4	0.1%	0.0
Nc1ccc(S(=O)(=O)Nc2nccc(/C=C/c3ccc(Cl)cc3Cl)n2)cc1
→ ?	-6	7	2.7	-2.8%	-1.5
N#CC[n+]1cc(-c2ccc(Cl)cc2)n2c1CCC2
→ 4	10	3	0.8	?	-4.3
COc1ccc(-c2csc(NC3OC(=O)c4c3ccc(OC)c4OC)n2)cc1OC (stereo unspecified)
→ -6	38	-1	-0.3	-1.5%	2.0
CCCN1CCN(C(=O)CN2C(=O)CC(C)(C)S(=O)(=O)c3ccccc32)CC1
→ 6	2	3	0.3	4.2%[38.3 µM]	-1.8

The final 3 compounds of the part before come first, to join the parts.
Value order: CtBP-E1A inh	TRPML1 inh	Six1-Eya2 inh	TRPML1 agonist	PINK1 expr mod	D2 agonist
N#CC[n+]1cc(-c2ccc(Cl)cc2)n2c1CCC2
→ 4	10	3	0.8	?	-4.3
COc1ccc(-c2csc(NC3OC(=O)c4c3ccc(OC)c4OC)n2)cc1OC (stereo unspecified)
→ -6	38	-1	-0.3	-1.5%	2.0
CCCN1CCN(C(=O)CN2C(=O)CC(C)(C)S(=O)(=O)c3ccccc32)CC1
→ 6	2	3	0.3	4.2%[38.3 µM]	-1.8
COc1ccc2c(CNCCc3cccs3)c(C(=O)O)n(Cc3cccc(F)c3)c2c1
→ .	31	.	5.0	0.3%	.
COC(=O)c1ccc(C2/C(=C(\O)c3ccc4c(c3)OCCO4)C(=O)C(=O)N2c2nnc(C)s2)cc1 (stereo unspecified)
→ -5	18	-6	2.6	4.6%	0.8
CCOC(=O)Cc1ccc(Nc2nc(NCCOC)nc3ccsc23)cc1
→ -10	.	-7	-1.2	-0.4%	4.4
COc1ccc(N2CC(C(=O)Nc3nnc(SCC(=O)NC(C)(C)C)s3)CC2=O)cc1 (stereo unspecified)
→ .	-1	0	-0.2	0.1%	-4.6
Cc1ccc(NC(=O)CSc2nc(C)c(C)c(C)n2)c([N+](=O)[O-])c1
→ -18	9	-14	2.8	-0.9%	1.4
CCOC(=O)[C@]12CCC=C1N(Cc1ccc(Cl)cc1Cl)C(=O)[C@H](CC(=O)NCc1ccc(C)o1)C2
→ -19	.	-3	-0.1	0.4%	.
Cc1c(N=Cc2ccc(Cl)o2)c(=O)n(-c2ccccc2)n1C
→ 4	20	-2	0.2	2.6%[38.3 µM]	2.0
C=CCc1c(C)nc(-c2ccccc2)nc1N/N=C(\C)c1ccc(N)cc1
→ -20	7	8	0.1	1.2%	-4.9
CCC(C(=O)Nc1cc(C)on1)c1ccccc1 (stereo unspecified)
→ -1	-10	5	-0.8	-0.8%	-2.8
O=C(COc1ccc(Cl)cc1)NCCSc1ccccc1
→ 12	-5	8	2.6	-0.3%	-1.7
CC(C)(C)C1CCN2CCC[C@](c3ccccc3)(C1)[C@@]21CO1 (stereo partly specified)
→ 1	.	-8	-1.0	9.6%	.
Cc1ccsc1C(=O)OCC(=O)N1CCN(c2ccccc2)CC1
→ -4	-2	-3	-0.7	0.2%	-0.2
O=C(CCCN1C(=O)C2CC=CCC2C1=O)Nc1ccccc1Cl (stereo unspecified)
→ 6	4	1	-0.2	-0.2%	-0.9
C=C1CCC2C(C)(C)[C@H](O)CC[C@@]2(C)[C@@H]1COc1cc(=O)oc2ccccc12 (stereo partly specified)
→ 0	77	-7	1.2	1.4%	8.3
CC(NCc1ccc(F)cc1)C(=O)Nc1cc(S(=O)(=O)N2CCCCC2)ccc1Cl (stereo unspecified)
→ 0	-9	23	1.5	0.9%	-1.1
N#Cc1cn(OCc2ccccc2)c(=O)[nH]c1=O
→ 25	26	15	-0.2	-1.3%	-1.2
COc1ccc(NC(=O)NCc2c(-n3cccc3)sc3c2CCCC3)c(OC)c1
→ .	4	.	-0.5	1.8%	.
Cc1cc2c(cc1S(=O)(=O)Nc1ccc(OC(F)(F)F)cc1)OCC(=O)N2
→ -3	17&-12	-9	0.1&0.4	2.7%&1.9%	8.1
O=c1c2[nH]c3ccc(F)cc3c2ncn1CCN1CCOCC1
→ -2	-5	0	-0.1	-1.1%	-3.9
O=C(NCCCCc1ccccc1)Nc1cccc(F)c1
→ 17	11	38	1.4	?	-2.6
O=C(Nc1nc2ccsc2c(=O)s1)c1ccc(F)cc1Cl
→ -11	22	-5	0.2	2.2%	0.2
CCC(C)NCC(=O)Nc1ccc([N+](=O)[O-])cc1C(=O)Nc1ccccc1F (stereo unspecified)
→ -2	.	0	.	0.9%	-1.1

Hits appear at their usual frequency; overall some 1% were active at least once.
